# High-throughput results: PubChem BioAssay, several laboratories
# UCH37 DUB inh = inhibitors of human deubiquitinating enzyme UCH37. purified proteasome/UCH37, Ub-AMC cleavage fluorescence. inhibition, % (concentration not given with the values). hit rate 0.33% among 330,000;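 active means mean of two replicates above 20%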;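 further: 0% = compound-free wells with enzyme and 100% = wells lacking proteasome; stock transfer was 100 nL into about 20 µL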
# Target sequence (Q9Y5K5 whole entry, looked up): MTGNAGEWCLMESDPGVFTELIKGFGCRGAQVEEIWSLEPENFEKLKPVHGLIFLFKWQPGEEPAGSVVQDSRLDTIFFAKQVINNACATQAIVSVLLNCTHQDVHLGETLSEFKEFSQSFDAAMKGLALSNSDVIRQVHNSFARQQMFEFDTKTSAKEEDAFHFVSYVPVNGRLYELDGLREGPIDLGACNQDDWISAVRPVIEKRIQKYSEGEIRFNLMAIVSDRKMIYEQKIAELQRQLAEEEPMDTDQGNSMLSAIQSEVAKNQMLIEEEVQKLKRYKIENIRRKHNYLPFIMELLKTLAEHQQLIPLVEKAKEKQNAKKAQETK
#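 Assay system: Proteasome-bound UCH37. Buffer or medium: pH 7.4 Tris-HCl (50 mM) with ovalbumin, ATP-MgCl2, DTT. Incubation: 30 min preincubation with enzyme, 25 min cleavage at room temperature. Measured by: fluorescence, ex 355 nm, em 460 nm. Read-out basis: percent inhibition. Control set: wells without proteasome as full block, compound-free enzyme plus substrate as uninhibited.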
# E coli growth = E. coli growth inhibition; Escherichia coli growth, OD600, 23 h; stronger effect = lower value; OD600 absorbance (test concentration not listed); hit rate 0.21% among 330,000; AID 1053175;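 active means OD600 absorbance below the run mean of sample wells minus 3.6 SD, in any replicate, cut at about 0.56 in these data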;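 further: stock transfer was 300 nL into about 60 µL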
# HNF4A DNA FP = change in binding of human HNF4 alpha to DNA; P41235; HNF4a-FITC DNA binding, fluorescence polarization, 1 h; activity change, % at 10 µM; hit rate 0.3% among 360,000; AID 1224865; in the data active means activity change above about 30%, passing the limit was not always enough;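 further: controls were the assay level and a saturating level of protein; the project sought stronger binding though the title names inhibitors; some compounds called inactive have numbers as strong as hits; positive values seem to mean higher polarization but the record does not say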
# Target sequence (P41235 whole entry, looked up): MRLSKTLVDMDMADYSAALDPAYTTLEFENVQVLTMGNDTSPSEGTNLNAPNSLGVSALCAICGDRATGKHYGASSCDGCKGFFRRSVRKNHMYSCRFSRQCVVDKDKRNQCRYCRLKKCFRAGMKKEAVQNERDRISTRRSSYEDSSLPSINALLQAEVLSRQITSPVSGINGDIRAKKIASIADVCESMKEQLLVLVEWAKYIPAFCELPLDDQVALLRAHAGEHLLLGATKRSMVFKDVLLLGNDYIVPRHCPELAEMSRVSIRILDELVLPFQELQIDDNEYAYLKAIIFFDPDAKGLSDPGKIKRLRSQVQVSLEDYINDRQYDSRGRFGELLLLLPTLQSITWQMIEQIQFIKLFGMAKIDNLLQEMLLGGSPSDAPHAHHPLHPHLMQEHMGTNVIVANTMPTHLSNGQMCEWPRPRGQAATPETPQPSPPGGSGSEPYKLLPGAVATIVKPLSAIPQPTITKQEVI
# AF4-AF9 inh = MLL-AF4/AF9 protein interaction inhibition. AID 651704. hit rate 0.47% among 350,000. inhibition, % at 10 µM. AlphaScreen, biotin-AF4 peptide binding to FLAG-AF9;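 active means every replicate reaching a set inhibition limit, whatever the replicate mean, cut at about 25% in these data; inconclusive means mean inhibition reaches that limit but some replicates miss it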;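 further: 0% = plate neutral control median and 100% = total signal loss; the record names both 10 and 1 µM as test concentration; the first replicate is given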
# RanGTP-Impb inh = disruptors of Ran-importin-beta complex formation – biochemical, FRET, CFP-Ran, YFP-importin-beta, homogeneous, primary screen. inhibition, % (concentration not given with the values). cell-free CFP-Ran/YFP-importin-beta FRET ratio. hit rate 1.1% among 300,000;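 active means most replicates above 15%; inconclusive means exactly half above 15%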;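 further: 0% = DMSO wells and 100% = Ran loaded with GDP instead of GTP; wells of about 40 µL received 100 nL stock; the first replicate is given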
# FGF22 binding = FGF22 (human) thermal shift binding | recombinant FGF22 thermal shift, SYPRO orange fluorescence; percent of sucrose octasulfate shift, DMSO zero | hit rate 1.5% among 340,000 | calls only at 9.99 µM | Q9HCT0;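 active means melting point raised past a set limit in the mean and every replicate; inconclusive means no clear call; three in four hits are not shown here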
# Target sequence (Q9HCT0 whole entry, looked up): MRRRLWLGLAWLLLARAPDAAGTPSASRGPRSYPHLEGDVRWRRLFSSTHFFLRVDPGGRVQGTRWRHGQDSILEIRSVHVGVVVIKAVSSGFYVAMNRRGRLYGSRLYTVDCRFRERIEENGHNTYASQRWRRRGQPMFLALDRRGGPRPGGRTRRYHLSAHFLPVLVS
# Vif TR-FRET = HIV-1 Vif–A3G interaction blockers – biochemical, TR-FRET, GST-Vif 1-94, biotin-A3G peptide, dose response retest, primary screen (AID 1117319); TR-FRET GST-Vif / biotin-A3G peptide binding; higher % means a stronger effect; test concentration not given here; strong numbers were not always called active; one-dose inhibition, %; IC50 in µM for titrated hits; hit rate 0.57% among 260,000;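 active means above the screen mean plus three standard deviations and confirmed in dose response; inconclusive means results disagree or hit not tested in dose response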;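 further: Vif residues 1-94 fused to GST binding biotinylated APOBEC3G peptide 110-148; 0% = full assay without inhibitor and 100% = GST in place of GST-Vif; retest series ran down from 100 µM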
# * hit, by the source's call; i = inactive; ? = inconclusive; nt = no result given; & = joins results of further samples. An excerpt, so the mix of outcomes need not match the whole.
SMILES,UCH37 DUB inh,E coli growth,HNF4A DNA FP,AF4-AF9 inh,RanGTP-Impb inh,FGF22 binding,Vif TR-FRET
O=C(c1cc(S(=O)(=O)NCc2ccco2)ccc1Br)N1CCOCC1,3.7,0.695,-3.4,1.9,nt,i,-2.6%
COc1ccccc1-n1c(SCC(=O)Nc2ccc3c(c2)OCO3)nc2c(c1=O)SCC2,3.5,0.723,-5.5,nt,-0.2,nt,13.2%
CCN(CC)C(=O)C1CCN(S(=O)(=O)c2cccc3nonc23)CC1,3.0,0.692,-3.3,nt,7.4,nt,-0.1%
CC(=O)Nc1cccc(-c2csc(Nc3ccc(C)cn3)n2)c1,3.6,0.667,-1.6,nt,1.2,nt,nt
CCC(=O)N1CCC2(CC1)Oc1ccc(Cl)cc1C(=O)C21CC(c2ccc(Cl)cc2)=NO1 (stereo unspecified),2.9,0.634,0.5,nt,3.1,i,nt
O=C(COC(=O)C12CC3CC(CC(O)(C3)C1)C2)N1CCN(S(=O)(=O)c2ccc(Cl)cc2)CC1,3.1,0.669,-0.6,nt,-2.5,nt,29.1%
CC(C)(C)NC(=O)/C(=C/c1ccccc1F)NC(=O)c1ccc([N+](=O)[O-])cc1,1.1,0.675,-0.7,-3.8,0.8,i,-4.5%
CN(Cc1ncc[nH]1)C(=O)c1cc(COc2c(F)cccc2F)on1,2.4,0.69,-1.4,-2.4,1.4,i,2.2%
CCOCC(O)CNc1ccccc1 (stereo unspecified),-1.6,0.717,0.7,nt,5.2,nt,6.8%
O=C(Nc1ccccc1)OCCN1CCOCC1,0.8,0.687,0.0,1.5,nt,i,1.7%
CN=C1SC(CC(=O)Nc2ccc(C(C)=O)cc2)C(=O)N1C (stereo unspecified),-0.2,0.781,-2.6,nt,-0.4,nt,nt
O=C(CCC1CCCN(C(=O)Cn2cnnn2)C1)NCc1ccccc1F (stereo unspecified),2.8,0.698,-4.5,-3.5,1.2,i,-5.0%
CC1CCCC(NC(=O)COC(=O)c2cc(S(=O)(=O)N3CCOCC3)ccc2F)C1C (stereo unspecified),-0.3,0.639,0.2,-3.1,nt,i,6.8%
O=C1C2ON(c3ccccc3)C(c3ccncc3)C2C(=O)N1c1ccc(N2CCOCC2)cc1 (stereo unspecified),8.0,0.768,3.9,2.7,0.6,i,3.4%
CN(CC(=O)Nc1cccc(F)c1)C(=O)CCc1nc2ccccc2c(=O)[nH]1,-1.9,0.629,-2.0,-2.3,1.4,i,8.0%
CCCCNC(=O)Cn1c2c(c(-c3ccccc3Cl)cc1=O)CCC2,-15.8,0.734,-1.4,-3.2,2.6,i,11.2%
CS(=O)(=O)N(CC(=O)Nc1cccc(Cl)c1Cl)c1ccccc1,2.3,0.657,-1.2,nt,1.0,nt,14.0%
CCN(CC)CCN1C(=O)c2ccccc2NC1c1ccc(Br)cc1 (stereo unspecified),-354.3,0.652,0.6,0.1,-1.7,nt,?
C[C@H](NC(=O)c1ccco1)C(=O)NC1CCCCCC1,-2.6,0.717,3.0,-12.6,nt,i,-15.2%
CCOC(=O)C1(C)NC(c2ccc(O)cc2)C2C(=O)N(c3ccccc3)C(=O)C21 (stereo unspecified),0.2,0.675,-1.9,-9.2,5.6,i,4.0%
Cc1ccc(S(=O)(=O)NC(CC(=O)O)c2cccs2)cc1 (stereo unspecified),0.5,0.712,0.1,-2.3,2.9,i,1.5%
CC1(C(=O)NS(=O)(=O)c2cccc(C#N)c2)CCN1C(=O)c1cccc2ccccc12 (stereo unspecified),nt,nt,-4.3,-7.9,nt,i,nt
Cc1cccc(C)c1N1CCN(C(=O)Nc2ccc3c(c2)OCCO3)CC1,2.4,0.707,2.7,nt,3.0,nt,13.7%
Cc1cccc(OCC(=O)NCCCNC(=O)c2ccccn2)c1,0.2,0.689,-2.1,-1.3,-4.1,i,nt
O=C(Nc1ccc(F)cc1F)N1CCCN(c2ccc([N+](=O)[O-])cn2)CC1,10.8,0.7,3.1,-0.6,-1.8,i,6.0%
CCOC(=O)c1ccc(NC(=O)COC)cc1,5.5,0.689,3.0,nt,4.0,nt,-1.4%
COc1ccc(-c2nc(C#N)c(NCC3CCCO3)o2)cc1OC (stereo unspecified),-280.5,0.718,-0.4,nt,3.1,nt,0.4%
Cc1ccc(C)c(NC(=O)C(Sc2nncn2C)c2ccccc2)c1 (stereo unspecified),0.5,0.656,-1.1,nt,-1.7,nt,5.9%
CCc1ccc(CN2CCC(CO)(CC3CCCCO3)CC2)o1 (stereo unspecified),-2.0,0.684,-0.8,-12.0,4.3,i,4.5%
CCn1nccc1C(=O)Nc1ccccc1OC,-1.1,0.645,-1.8,-0.5,6.4,i,nt
c1ccc2[nH]c(NCc3ccc4c(c3)OCO4)nc2c1,0.1,0.704,3.2,2.0,0.0,i,27.4%
O=C1NC2(CCCc3ccccc32)C(=O)N1CCOc1ccc(Br)cc1 (stereo unspecified),1.3,0.763,0.4,nt,0.5,nt,5.4%
CCCCCCCNC(=O)C1(CC2CC(c3ccc(Cl)cc3)=NO2)CCN(C(=O)Cc2ccc(F)cc2)CC1 (stereo unspecified),0.6,0.702,2.1,-4.5,2.6,i,nt
O=c1nc(-c2ccccc2)n(-c2ccccc2)c2ncccc12,2.2,0.684,-4.8,0.8,0.5,i,9.0%
COc1ccc(N2CC(C(=O)Nc3ccc(S(=O)(=O)Nc4nccs4)cc3)CC2=O)cc1 (stereo unspecified),0.1,0.637,-1.4,-0.3,-0.1,i,6.1%
Cc1cc(NC(=O)CSc2nnc3c(C)cc4ccccc4n23)no1,-1.3,0.715,1.2,-32.1,-2.1,i,-5.5%
Cc1cc(NC(=O)C2CC(=O)OC2c2ccccc2)no1 (stereo unspecified),2.1,0.712,0.0,nt,2.4,nt,-1.2%
CCN(CC(=O)Nc1c(F)cccc1F)C(=O)/C=C/c1cn(Cc2ccccc2)nc1-c1cccnc1,-5.9,0.702,15.9,-0.3,3.8,i,nt
Cc1c(C)n(Cc2ccccc2)c2ncnc(NCCN(C)C)c12,1.3,0.667,-2.2,16.5,-2.2,i,-6.6%
O=C1c2cccc3cccc(c23)C(=O)N1c1nccs1,-28.7,0.728,-0.5,nt,1.0,nt,?

# Complete entries, quoted from the list.
# CCN(CC)C(=O)C1CCN(S(=O)(=O)c2cccc3nonc23)CC1 reads UCH37 DUB inh = 3.0; E coli growth = 0.692; HNF4A DNA FP = -3.3; AF4-AF9 inh = nt; RanGTP-Impb inh = 7.4; FGF22 binding = nt; Vif TR-FRET = -0.1%
# CCc1ccc(CN2CCC(CO)(CC3CCCCO3)CC2)o1 (stereo unspecified) reads UCH37 DUB inh = -2.0; E coli growth = 0.684; HNF4A DNA FP = -0.8; AF4-AF9 inh = -12.0; RanGTP-Impb inh = 4.3; FGF22 binding = i; Vif TR-FRET = 4.5%

# The list goes on.
SMILES,UCH37 DUB inh,E coli growth,HNF4A DNA FP,AF4-AF9 inh,RanGTP-Impb inh,FGF22 binding,Vif TR-FRET
Cc1cccc(NCC(=O)N/N=C\c2cccc(Oc3ccccc3)c2)c1,nt,nt,-0.9,2.3,5.2,nt,nt
CN(C(=O)CSc1nc2c(c(=O)[nH]1)CCCC2)C1CCCCC1,3.4,0.755,-1.4,4.4,-3.1,i,31.8%
CN1CCN(NC(=O)c2ccc(Br)c(S(=O)(=O)N3CCOCC3)c2)CC1,0.4,0.721,-1.4,0.2,5.3,i,2.1%
CCc1cc(=O)[nH]c(SCC(=O)N2CCCC2)n1,6.3,0.723,2.3,-0.4,3.2,nt,-6.5%
COc1ccc(C(C(=O)NC2CCCC2)n2c(C3CCN(C(C)=O)CC3)nc3ccccc32)cc1 (stereo unspecified),nt,nt,0.4,-4.1,nt,i,nt
Cc1onc(-c2c(Cl)cccc2Cl)c1C(=O)O/N=C(\C#N)c1ccccc1,nt,nt,-1.0,2.5,3.0,i,12.1%
O=C(Nc1nnc(S(=O)(=O)N2CCOCC2)s1)c1ccccc1Cl,2.8,0.699,0.8,-2.8,-0.1,i,nt
COc1ccc(S(=O)(=O)N2CCN(CC(=O)Nc3ccc(F)c(F)c3)CC2)cc1,2.2,0.756,1.5,nt,3.9,nt,-1.5%&1.0%
CCN(CC)C(=O)c1ccc(CS(=O)(=O)Cc2ccccc2)cc1,-2.4,0.688,1.2,-4.2,-0.7,i,nt
CCOC(=O)c1c(S(=O)(=O)NCC(=O)N2CCN(c3ccccc3OC)CC2)c(C)n(C)c1C,2.7,0.704,0.2,3.4,3.0,i,nt
O=C(NCCc1ccccc1)C(=O)c1c(-c2ccccc2)[nH]c2ccccc12,5.3,0.666,1.9,5.2,-1.3,i,-4.7%
O=C(CSc1nc2ccccc2o1)N1CCN(C(=O)c2ccco2)CC1,0.3,0.662,-1.0,nt,-5.3,nt,-2.0%
COc1ccc(-c2ccc(SCC(=O)NCc3ccco3)nn2)cc1OC,7.5,0.637,-3.2,nt,-1.3,nt,26.5%
CCOC(=O)N1CCN(C(=O)CN(C)S(=O)(=O)c2ccc3c(c2)C(C)(C)C(=O)N3C)CC1,0.5,0.673,-0.6,nt,5.1,nt,-2.0%
Cc1ccc(S(=O)(=O)NC(=O)C2(C)CCN2C(=O)C2(c3ccc(Cl)cc3)CCC2)nc1 (stereo unspecified),nt,nt,2.1,-7.4,nt,i,nt
CCOC(=O)C1(C)CCCN1C(=O)c1ccc(C(=O)OC)cc1 (stereo unspecified),nt,nt,-2.3,-1.9,nt,i,nt
Cn1c(=O)c2c(ncn2CCc2ccccc2)n(C)c1=O,-0.7,0.696,0.8,-1.0,0.6,i,nt
Cc1c(-c2n[nH]c(=S)n2-c2ccc(Br)cc2)nnn1-c1ccc(Cl)cc1,3.6,0.671,3.0,-5.5,-0.3,nt,0.3%
CN=C(C)c1c(O)c2ccccc2oc1=O,2.4,0.651,0.4,nt,1.5,nt,0.1%
COC(=O)CCC(=O)OC1(C)C(=O)C=C2C=C(C3CC3)N(CCCCO)C=C2C1=O (stereo unspecified),5.2,0.633,-9.7,-1.9,?,i,nt
CCOc1ccc(C(=O)CSCCC(=O)O)cc1,1.6,0.724,2.3,-5.9,1.5,i,-13.2%
Cn1c(=O)oc2cc(S(=O)(=O)NCc3cccnc3)ccc21,1.3,0.736,3.0,-6.6,?,i,4.2%
COc1ccc(/C=N/n2cnnc2)cc1COc1ccccn1,nt,nt,-2.3,nt,?,nt,-9.7%
Cc1ccc(NC(=S)NNc2ncc(C(F)(F)F)cc2Cl)c(C)c1,5.3,0.689,0.8,nt,2.3,nt,-4.8%
Cc1cnc(NC(=O)c2ccc(Cl)nc2)s1,2.4,0.62,-1.7,-0.1,3.3,i,-8.6%
CCN1N=C(C)C=C(c2ccccc2)n2c1nc1ccccc12,-0.8,0.716,0.2,-2.2,-0.8,i,-1.8%
Cn1c(=O)[nH]c(=O)c2c1nc(Br)n2Cc1ccc(Cl)cc1,nt,nt,-0.6,-6.1,nt,i,-0.3%
COc1ccccc1C(=O)N/C(=C\c1ccc(Br)cc1)C(=O)NCCCO,0.1,0.639,-3.5,0.6,?,i,7.5%
O=C(O)c1ccc(CN2C(=O)c3ccc(C(=O)O)cc3C2=O)cc1,5.1,0.677,5.5,-4.4,1.1,i,2.4%
CN1C(=O)CSC1=NC12CC3CC(CC(C3)C1)C2,4.8,0.661,1.4,nt,0.4,nt,-1.3%
CC1CCC2(CC1)NC(=O)N(CC(=O)NCCc1ccc(F)cc1)C2=O (stereo unspecified),0.6,0.639,3.5,-3.7,nt,i,nt
COC(=O)/C=C1\OCc2cccc(C)c21,nt,nt,0.1,-0.7,nt,i,nt
CC1CCN(CCC(=O)Nc2ccc(Cl)cc2)CC1,1.5,0.702,-2.9,1.0,6.5,i,1.1%
